Assay outcomes: PubChem, Southern Research Institute
Mtb growth = Confirmatory growth inhibition assay against Mycobacterium tuberculosis H37Rv, potency (AID 1949) | most inactive calls were filed without a number and no value below 0 was filed | inhibition, % at 10 µg/mL, or IC50 in µg/mL where a hit was titrated | 100,000 compounds, 1.6% hits;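 active means confirmed in a dose series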;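 further: bacteria grown 7 days with compound before Alamar blue readout; 0% = untreated bacteria and 100% = reference antibiotic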
Active calls of the source: *; i = inactive. Only part of the results is shown. The share of hits here may be higher or lower than overall.

Compound	Mtb growth
CCc1cccc(C)c1NC(=O)CSCC(=O)Nc1ccccc1	i
CC1=C(C(=O)Nc2cc(C)ccc2C)C(c2ccc(Cl)cc2)NC(=O)N1 (centres undefined)	i
COc1ccc2cc(Br)ccc2c1CC(=O)Nc1cc(C)ccn1	i
COc1ccc(CC(=O)Nc2nc3ccc(S(C)(=O)=O)cc3s2)cc1	i
Cc1nc2ccccc2n1C(=O)c1ccccc1Cl	i
COc1ccc(N(CC(=O)NCCSC(C)(C)C)S(C)(=O)=O)c(OC)c1	i
COc1cc(NS(C)(=O)=O)c(OC)cc1NC(=O)c1ccccc1	i
CC1CC(CCC(=O)NC(=S)Nc2ccc(Cl)cn2)C(=O)O1 (centres undefined)	i
Cc1cc(OCC(N)=O)c2c(C)c(C)c(=O)oc2c1	i
CCOC(=O)C(=O)Nc1ccc(S(=O)(=O)Nc2ccc(OC)cc2)cc1	i
O=C(Nc1ccc(I)cc1)c1ccc2snnc2c1	i
Cc1cc(C)c(NC(=O)NC(=O)C(Cl)(Cl)Cl)c(C)c1	i
COC(=O)c1cccc(NC(=O)c2cc(OC)cc(OC)c2)c1	6%
Cc1cc(C(=O)Nc2nncs2)c(C)o1	i
O=C(c1sc2cc(Cl)ccc2c1Cl)N1CCN(C(=S)NCc2ccco2)CC1	9%
COC(=O)C1=CN(Cc2ccc(OC)cc2)C=C(C(=O)OC)C1c1ccccc1OC	2%
CC(=O)NS(=O)(=O)c1ccc(NC(=O)c2ccc(-c3ccccc3)cc2)cc1	1%
O=S(=O)(Nc1cccc2ccccc12)c1ccc(Cl)cc1	4%
O=C1c2ccccc2C(=O)N1CCCc1nc2ccccc2c(=O)n1Cc1ccccc1	i
COCCSc1ccccc1C(=O)N1CCCc2ccccc21	i
O=C(Nc1nc(SCc2ccc(F)cc2)ns1)c1cccs1	i
Cc1c(Cl)cccc1NC(=O)COc1ccc(S(=O)(=O)N2CCOCC2)cc1	i
COC(=O)CC1C(=O)NCCN1C(=O)c1ccccc1 (centres undefined)	1%
COc1ccccc1C(=O)NC(=S)Nc1ccc(NC(=O)Cc2ccccc2)cc1	i
CCOc1cc(C2NC(=O)NC(C)=C2C(=O)OC)cc(Br)c1OCC(C)C (centres undefined)	i
O=C(c1ccccc1C(=O)N1CCOCC1)N1CCOCC1	i
COc1cc(OC)c(C2/C(=C(\O)c3cnn(-c4ccccc4)c3C)C(=O)C(=O)N2CCCN(C)C)cc1OC (centres undefined)	i
CCOC(=O)C1CCN(C(=O)c2ccc(N(C)S(=O)(=O)c3ccc(C)cc3)cc2)CC1	i
COc1cc(Cl)c(S(=O)(=O)N2CCN(c3ccccc3F)CC2)cc1Cl	i
Cc1onc(-c2ccccc2Cl)c1C(=O)NCc1ccc(N2CCCC2=O)cc1	i
O=C1CC(N2CCC(O)(c3ccc(Br)cc3)CC2)C(=O)N1c1cccc(F)c1 (centres undefined)	i
CC(NC(=S)NCCN1CCOCC1)C12CC3CC(CC(C3)C1)C2 (centres undefined)	2%
Cc1ccccc1-c1noc(COc2cccc3ccccc23)n1	i
CCCCN(CC)c1nnnc2c1sc1nc(N3CCOCC3)c3c(c12)CC(C)(C)OC3	i
C=C(C)c1cccc(C(C)(C)NC(=O)N2CCN(CC(N)=O)CC2)c1	i
Cc1cc(CO)c(C)n1-c1ccncc1	i
CCCCOC(=O)Nc1ccc(C(=O)OC)cc1	i
O=C(O)c1cccc(CSc2nnc(-c3ccc(Cl)cc3)o2)c1	i
Cc1ccccc1CN(c1ccc(C(=O)NCCC2=CCCCC2)cc1)S(C)(=O)=O	0%
O=C(Nc1ccccc1C(F)(F)F)NN1CCOCC1	i
CCOC(=O)c1c(NC(=O)c2ccc(N3C(=O)CCC3=O)cc2)sc(C)c1C	1%
CCN(CC)C(=O)C(=O)c1cn(Cc2ccccc2)c2ccccc12	i
CCOc1cc(C(=O)N(C(C)CC)C(C)CC)cc(OCC)c1OCC (centres undefined)	2%
CS(=O)(=O)N1CCN(C(=S)NC2CCCCC2)CC1	i
CC(C)c1ccc2oc(-c3ccc(NC(=S)NC(=O)c4cncc(Br)c4)cc3)nc2c1	19%
CC(NC(=O)C1c2ccccc2Oc2ccccc21)c1ccccc1 (centres undefined)	i
CCCC(NC(=O)c1c(C)noc1C)C12CC3CC(CC(C3)C1)C2 (centres undefined)	1%
CCc1c(C)sc(NC(=S)NN2CCOCC2)c1C(=O)OC	i
CS(=O)(=O)N(Cc1ccccc1)c1ccccc1C(=O)Nc1ccccc1Cl	i
Cc1ccc2nc(Cc3nc4ccc(C)cc4[nH]3)[nH]c2c1	i

Remaining list, next part:
Compound	Mtb growth
CCOc1ccc(C(=O)Nc2ccccc2N2CCCC2)cc1Br	i
O=C(Nc1ccc2c(c1)OCCO2)c1cccc(S(=O)(=O)N2CCCCCC2)c1	i
Cc1ccc(NC(=O)c2ccc(N3CCN(C)CC3)c([N+](=O)[O-])c2)cc1Cl	2.2µg/mL*
CCC(=O)Oc1ccc(C(=O)Nc2cccc(C(=O)O)c2)cc1	i
C=CCN(CC=C)C(=O)Nc1ccc(OC)cc1OC	i
FC(F)(F)c1ccccc1NC(=S)NCc1cccs1	i
COC(=O)c1ccccc1NC(=O)C1CCC(=O)N1S(=O)(=O)c1ccc(C)cc1 (centres undefined)	i
Nn1c(SC/C=C/c2ccccc2)nnc1-c1ccccc1	i
O=C(CSc1nc2ccccc2o1)Nc1ccccc1C(F)(F)F	i
Cc1cnc(NC(=O)CSc2nnc(CNC(=O)c3ccccc3)n2C)s1	i
COC(=O)c1cccc(NC(=O)c2ccc3c(c2)C(=O)N(C)C3=O)c1	i
N#CCN(CC#N)C(=O)CCc1ccccc1	i
CCn1c(COc2ccccc2C)nc2ccccc21	10%
C=CCOc1cccc(CNCc2cccnc2)c1	i
Cc1cc(CSc2ccccc2)ccc1NS(C)(=O)=O	i
COc1ccc(OCCCC(=O)Nc2ccc(S(=O)(=O)Nc3cc(C)nc(C)n3)cc2)cc1	3%
O=C(NCc1ccc(CNC(=O)c2ccco2)cc1)c1ccco1	1%
Cc1cccc(Cl)c1OCCCN1CCOCC1	5%
CCc1cccc(CC)c1NC(=O)C(CC)c1ccccc1 (centres undefined)	2%
CCCn1c(NCc2ccco2)nc2ccccc21	i
COc1ccc(Cl)cc1NC(=S)N1CC(C)OC(C)C1 (centres undefined)	0%
COC(=O)c1ccc(C2Nc3ccc([N+](=O)[O-])cc3C3c4ccccc4CC23)cc1 (centres undefined)	i
Cc1cc(F)c(F)c(C(=O)N2CCCc3ccccc32)c1Cl	i
CCN(CC)CCNC(=S)Nc1ccc(F)cc1	i
CCN1CCN(C(=O)c2ccc(Cl)c(F)c2F)CC1	i
CN(CC(=O)NC1CCCCCC1)S(=O)(=O)c1cc(Cl)ccc1Cl	i
COCc1cccc(NC(=O)c2ccccc2I)c1	i
CCOC(=O)CNc1ncnc(N)c1[N+](=O)[O-]	i
CCOCc1cc(C2NC(=O)NC(C)=C2C(=O)OCC)ccc1OC (centres undefined)	i
COc1ccc(CNC(=O)COc2ccc(Br)c(C)c2)cc1	i
CC1(c2ccccc2)C(C#N)=C(N)OC2=C1C(=O)CCC2 (centres undefined)	0%
COc1cccc(CNC(=S)NC2CC2)c1	i
CCc1cccc(OCCCCN(CC)CC)c1	i
CCc1c(O)nc(SC2CC(=O)N(c3ccc(F)c(Cl)c3)C2=O)[nH]c1=O (centres undefined)	i
Nc1cc(Oc2ccc(O)c(N)c2)ccc1O	6.1µg/mL*
CCOc1ccc(C(=O)NN2C(=O)c3ccccc3C2=O)cc1	i
O=C(COc1ccccc1)N1CCN(c2ccc([N+](=O)[O-])c(NCCc3ccccc3)c2)CC1	i
C=CCn1c(SCC(=O)Nc2ccc(C)cc2C)nnc1-c1cc2ccccc2cc1O	i
CCc1cc(I)ccc1NC(=O)c1ccc(OC)c([N+](=O)[O-])c1	i
Cc1ccccc1Oc1c(F)c(F)c(/C=C/CN2CCOCC2)c(F)c1F	2%
Cc1ccc(C)c(OCC(=O)Nc2ccc(F)cc2)c1C	6%
CC(=O)Nc1nnc(SCc2cccc3ccccc23)s1	i
COc1ccc(Cl)cc1NC(=O)c1ccc(F)cc1	i
CCn1c(SCC(=O)Nc2cccc3ccccc23)nnc1C(C)NC(=O)c1ccccc1 (centres undefined)	i
O=S(=O)(Nc1ccc(-c2cn3ccccc3n2)cc1)c1ccc(Br)cc1	5%
CCNC(=S)Nc1cccc(OC)c1	i
Cc1cc(C)c(OCC(=O)Nc2ccccc2C(=O)O)cc1C	7%
COC(=O)c1cn(CC(=O)NCc2cccs2)c2ccccc12	0%
Cc1ccc(NC(=O)CN2CCN(Cc3ccc4c(c3)OCO4)CC2)cc1	i
COc1ccc(-c2ccc(CCC(=O)O)n2NC(=O)c2cccs2)cc1	0%

Reprinted at random: 6 entries already listed, in no set order.
Compound	Mtb growth
CCc1cc(I)ccc1NC(=O)c1ccc(OC)c([N+](=O)[O-])c1	i
O=S(=O)(Nc1ccc(-c2cn3ccccc3n2)cc1)c1ccc(Br)cc1	5%
CCn1c(SCC(=O)Nc2cccc3ccccc23)nnc1C(C)NC(=O)c1ccccc1 (centres undefined)	i
CCOc1ccc(C(=O)NN2C(=O)c3ccccc3C2=O)cc1	i
CCc1c(O)nc(SC2CC(=O)N(c3ccc(F)c(Cl)c3)C2=O)[nH]c1=O (centres undefined)	i
Cc1ccccc1Oc1c(F)c(F)c(/C=C/CN2CCOCC2)c(F)c1F	2%

Further records:
Compound	Mtb growth
Cc1ccc(NC(=O)c2c(NC(=O)c3ccco3)sc3c2CCC3)cc1	i
CCc1cc2c(=O)n(CC(=O)Nc3cc(OC)ccc3OC)cnc2s1	i
CCOC(=O)C1CCCN(CC(O)COc2ccc3ccccc3c2)C1 (centres undefined)	6%
COc1ccc(S(=O)(=O)N(CC(=O)Nc2ccc3c(c2)OCCO3)c2ccc(C)cc2)cc1OC	i
O=C(OC1CCCCC1)c1c(F)c(F)c(F)c(F)c1F	1%
COc1ccc(/C(C#N)=C/c2ccc(-c3ccc(C(=O)O)cc3)o2)cc1OC	1%
COc1ccc2nc(SCC(=O)NC3CCCCCC3)[nH]c2c1	i
C=CCNCCOCCOc1cccc(OCC)c1	i
Cc1cc(C)c(NC(=O)CN(Cc2ccccc2)S(C)(=O)=O)c(C)c1	i
Cn1c(=O)c2c(ncn2CC(=O)Nc2nnc(Cc3ccccc3)s2)n(C)c1=O	i
CCOc1c(Cl)cc(CNCC(C)C)cc1OC	i
CCOC(=O)c1c(-c2ccc(Br)cc2)csc1NC(=O)COC	i
CN1CCN(C(=O)C23CCC(C2)C(C)(C)C3=O)CC1 (centres undefined)	i
COc1ccc(OC)c(N(CC(=O)NCc2ccccc2Cl)S(=O)(=O)c2ccccc2)c1	0%
O=C(O)C1CC=C(Cl)CC1C(=O)Nc1ccc([N+](=O)[O-])cc1 (centres undefined)	i
N/C(=N\OC(=O)c1cc(-c2ccccc2)nc2ccccc12)c1ccncc1	i
COc1ccc(N(CC(=O)Nc2ccccc2C(=O)N2CCCC2)S(C)(=O)=O)cc1	i
O=C(CNS(=O)(=O)c1ccc(F)cc1)N1CCC(Cc2ccccc2)CC1	i
COc1ccc(-c2cc(=O)[nH]c(=S)[nH]2)cc1	1%
O=C(c1cc2nc(-c3ccccc3)cc(C(F)(F)F)n2n1)N1CCOCC1	13%
COC(=O)c1ccc(NC(=O)CN(C2CCCCC2)S(C)(=O)=O)cc1	i
CCCN(CCC)S(=O)(=O)c1ccc(NC(=O)c2ccc(NC(C)=O)cc2)cc1	i
CC(C)(C)NC(=O)COc1ccc(C(C)(C)c2ccccc2)cc1	4%
CCCCCNC(=O)CN(c1ccc(OC)c(Cl)c1)S(C)(=O)=O	i
COc1ccc(OCc2ccccc2F)c(C=O)c1	5%
CCn1ccc(CNC(=S)Nc2ccc([N+](=O)[O-])cc2)n1	5%
COc1ccc(CCN2C(=O)CC(Nc3ccc(N4CCOCC4)cc3)C2=O)cc1OC (centres undefined)	5%
Cc1ccc(-c2nc3ccccc3c(C(=O)Nc3ccc4c(c3)OCO4)c2C)cc1	i
Cc1ccccc1-c1nnc(SCC(=O)Nc2ccc(Br)cc2F)n1C	i
Cc1ccc(NC(=S)NC(=O)C2CCC2)cc1C	13%
O=C(Nc1ccccc1Cl)c1ccc(COc2c(F)c(F)cc(F)c2F)cc1	i
Cc1c(OC(=O)c2ccco2)ccc2c3c(c(=O)oc12)CCC3	i
COc1ccc(C)cc1S(=O)(=O)N(CC(=O)O)c1ccc(F)cc1	i
COC(=O)c1ccccc1NC(=S)Nc1cccc(C(F)(F)F)c1	i
CCOC(=O)C1CCN(C(=O)CN(C)S(=O)(=O)c2c(C)cc(C)cc2C)CC1	4%
CCC(CC)C(=O)Nc1cccc(C(=O)NCCc2ccccc2)c1	i
O=C(c1ccc(Cl)cc1)N1CCN(c2ccc([N+](=O)[O-])c(N3CCCC3)c2)CC1	4%
Cc1ccc(NC(=O)C2Cc3ccccc3CN2S(=O)(=O)c2ccc(C)cc2)cc1 (centres undefined)	i

Grouped by structure: the compounds so far containing a cyano group.
Compound	Mtb growth
N#CCN(CC#N)C(=O)CCc1ccccc1	i
CC1(c2ccccc2)C(C#N)=C(N)OC2=C1C(=O)CCC2 (centres undefined)	0%
COc1ccc(/C(C#N)=C/c2ccc(-c3ccc(C(=O)O)cc3)o2)cc1OC	1%
